Source: PubChem BioAssay (Broad Institute)
Vaccinia inh: blocks a specific stage of Vaccinia orthopoxvirus infection, primary screen, cell-based, single point. activity change (mCherry), % (concentration not given with the values). 0.01% of 89,000 active. Vaccinia-infected cells, mCherry/Venus stage reporter fluorescence; hits give low values; some inactives read as strong as hits;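 active = mCherry past -33% and 40 or more points under the early reporter, replicates agreeing; inconclusive = past -33% without that gap or agreement; tested in A549 cells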;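 note: scaled between vehicle wells and reference inhibitor wells; 23 nL library stock went into each well; one replicate is shown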
Vaccinia inh Venus: also measured in Vaccinia inh; calls as there; activity change (Venus), %; measured here: Venus reporter, other viral stage;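 negative = less Venus signal; first of two replicates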
* marks the source's active call; other numbers are inactive results; ? = inconclusive; . = not tested or not shown. An excerpt; the hit share may differ from the screen's.

SMILES	Vaccinia inh	Vaccinia inh Venus
COC(=O)C[C@@H]1C[C@@H]2c3cc(NC(=O)c4cccnc4)ccc3O[C@@H]2[C@@H](CO)O1	10	4
COc1cccc(NC(=O)C[C@H]2CC[C@@H]3[C@H](COc4ccc(NC(C)=O)cc4C(=O)N3C)O2)c1	-1	-2
C[C@@H]1CN([C@H](C)CO)C(=O)c2cc(NC(=O)Nc3ccccc3)ccc2O[C@H]1CN(C)S(=O)(=O)c1cccs1	14	24
O=C(N[C@H]1CC[C@@H](CC(=O)N2CCc3ccccc3C2)O[C@H]1CO)C1CC1	7	8
COc1ccc2c3c(n(C)c2c1)[C@@H](CO)N(Cc1cccc(Cl)c1)CC31CN(C(C)=O)C1	-7	2
C/C=C/c1ccc2c(c1)O[C@@H](CN(C)C(=O)NC1CCCC1)[C@H](C)CN([C@@H](C)CO)S2(=O)=O	20	5
CCCc1cn(CC[C@@H]2CC[C@@H](NC(=O)C3CCCC3)[C@@H](CO)O2)nn1	3	12
CCCNC(=O)C[C@H]1CC[C@@H]2[C@H](COc3ccc(NC(=O)Nc4c(C)noc4C)cc3C(=O)N2C)O1	6	-6
COc1cccc(CN(C)C[C@H]2OCc3cn(nn3)CCCC(=O)N([C@H](C)CO)C[C@@H]2C)c1	15	14
O=C(C[C@@H]1C=C[C@@H](NS(=O)(=O)c2cccc(F)c2)[C@@H](CO)O1)N1CCCCC1	-1	-7
CN(C)CC#Cc1ccc([C@@H]2[C@H]3CN(C(=O)Cc4ccccn4)CCCCN3[C@H]2CO)cc1	20	20
C[C@H](O)C#Cc1cnc2c(c1)C(=O)N([C@H](C)CO)C[C@H](C)[C@H](CN(C)Cc1ccc(-c3ccccc3)cc1)O2	-26	-20
O=C(C[C@@H]1CC[C@H]2[C@@H](COC[C@@H](O)CN2C(=O)c2cccnc2)O1)NCc1ccccc1	2	1
O=C(Nc1ccc(F)cc1)N[C@@H]1CC[C@@H](CCNC(=O)c2ccccc2F)O[C@H]1CO	-6	-1
COCCNC(=O)C[C@H]1C[C@H]2c3cc(NC(=O)c4ccc5c(c4)OCO5)ccc3O[C@H]2[C@@H](CO)O1	-7	-9
C[C@H](CO)N1C[C@H](C)[C@H](CN(C)Cc2ccncc2)Oc2ncc(C#CC3CCCC3)cc2C1=O	-6	-6
C[C@@H]1CN([C@H](C)CO)C(=O)c2cc(NC(=O)c3ccccc3)ccc2O[C@@H](C)CCCCO[C@@H]1CN(C)Cc1ccc(C(F)(F)F)cc1	-33	-19
C[C@H](CO)N1C[C@H](C)[C@H](CN(C)C(=O)Nc2ccccc2)Oc2ccc(NC(=O)Nc3ccc(F)cc3)cc2C1=O	4	6
C[C@@H]1CN([C@@H](C)CO)S(=O)(=O)c2ccc(-c3cccc(F)c3)cc2O[C@@H]1CN(C)S(C)(=O)=O	-7	-7
C[C@H](CO)N1C[C@H](C)[C@@H](CN(C)Cc2ccccc2)Oc2ncc(-c3cccc(C#N)c3)cc2C1=O	-8	-6
C[C@@H]1CN([C@H](C)CO)S(=O)(=O)c2ccc(-c3cccc(F)c3)cc2O[C@H]1CN(C)C(=O)c1cccc(F)c1	?	.
C[C@H]1CN([C@@H](C)CO)C(=O)c2cc(NC(=O)C3CC3)ccc2O[C@@H]1CN(C)Cc1ccncc1	7	5
Cc1noc(C)c1NC(=O)Nc1ccc2c(c1)C(=O)N([C@@H](C)CO)C[C@@H](C)[C@H](CN(C)Cc1ccc(C(F)(F)F)cc1)OCCCC[C@@H](C)O2	?	.
CN1C(=O)c2cc(NC(=O)Cc3cccs3)ccc2OC[C@H]2O[C@H](CC(=O)NCCc3ccncc3)CC[C@@H]21	-3	7
O=C(C[C@H]1CC[C@H]2[C@@H](COC[C@@H](O)CN2S(=O)(=O)c2ccccc2Cl)O1)N1CCC(Cc2ccccc2)CC1	?	.
COCC(=O)N1[C@@H]2Cn3c(ccc(/C=C/c4ccccc4)c3=O)[C@H]1[C@@H](C(=O)N1CCCCC1)[C@@H]2CO	15	13
CCCNC(=O)[C@H]1[C@H](CO)[C@H]2Cn3c(ccc(C4=CCCCC4)c3=O)[C@@H]1N2CCC	5	-5
CO[C@H](CN(C)S(=O)(=O)c1ccc(F)cc1)[C@H](C)CN(Cc1ccccc1Cl)[C@@H](C)CO	-4	-1
C[C@@H]1CN([C@@H](C)CO)C(=O)Cc2cc(NS(C)(=O)=O)ccc2O[C@@H]1CN(C)C(=O)NC1CCCCC1	7	6
C[C@@H]1CN([C@@H](C)CO)S(=O)(=O)c2ccc(-c3ccccc3)cc2O[C@@H]1CN(C)CC1CC1	-5	-18
C[C@H](CO)N1C[C@H](C)[C@H](CN(C)S(=O)(=O)c2cn(C)cn2)OCc2cnnn2CCCC1=O	4	11
Cc1noc(C)c1NC(=O)N(C)C[C@@H]1OCCCC[C@@H](C)Oc2ccc(NS(=O)(=O)c3ccccc3)cc2C(=O)N([C@H](C)CO)C[C@H]1C	24	7
CNC[C@H]1Oc2cc(C#CCC3CCCC3)ccc2S(=O)(=O)N([C@@H](C)CO)C[C@@H]1C	?	.
COCC(=O)N1[C@H](C#N)[C@@H](c2ccccc2-c2cccc(C)c2)[C@@H]1CO	19	15
CCC(=O)N1CC(=O)N2[C@H](C1)[C@@H](c1ccc(C#Cc3cccnc3)cc1)[C@@H]2CO	0	7
CC(C)NC(=O)N(C)C[C@H]1Oc2ccc(NC(=O)Nc3ccc4c(c3)OCO4)cc2C(=O)N([C@H](C)CO)C[C@H]1C	5	-1
O=C(Nc1ccccc1F)N1CCCCN2[C@H](CO)[C@H](c3ccc(C4=CCCC4)cc3)[C@H]2C1	?	.
C[C@@H]1CCCCO[C@@H](CN(C)C(=O)c2ccccc2)[C@@H](C)CN([C@H](C)CO)C(=O)c2cc(NC(=O)NC3CCCCC3)ccc2O1	23	14
C[C@H]1CN([C@@H](C)CO)C(=O)c2cc(C3=CCCC3)cnc2O[C@H]1CN(C)C(=O)c1ccc2c(c1)OCO2	18	6
C[C@H]1CN([C@@H](C)CO)S(=O)(=O)c2ccc(Br)cc2O[C@@H]1CN(C)Cc1ccncc1	?	.
C/C=C/c1ccc([C@H]2[C@H](CO)N(C(C)=O)C23CN(S(C)(=O)=O)C3)cc1	4	-1
C[C@H]1CN([C@@H](C)CO)C(=O)Cc2cc(NC(=O)CCCCCC(=O)Nc3ccccc3N)ccc2O[C@@H]1CN(C)C(=O)Nc1ccccc1	3	4
O=C(CCN1CCCCC1)N[C@H]1CC[C@@H](CCNS(=O)(=O)c2ccc(F)cc2)O[C@H]1CO	-2	-2
CCCC(=O)Nc1ccc2c(c1)C(=O)N(C)[C@H]1CC[C@H](CC(=O)NCCc3ccccc3)O[C@H]1CO2	17	3
COc1ccc(S(=O)(=O)Nc2ccc3c(c2)C(=O)N([C@@H](C)CO)C[C@@H](C)[C@H](CN(C)Cc2ccc(C(F)(F)F)cc2)OCCCC[C@@H](C)O3)cc1	?	.
C[C@H](CO)N1C[C@H](C)[C@@H](CN(C)C(=O)C2CCCCC2)Oc2cc(C3=CCCCC3)ccc2S1(=O)=O	?	.
CO[C@H]1CN(C)C(=O)c2cc(NC(=O)C3CCCCC3)ccc2OC[C@@H](C)N(C)C[C@H]1C	4	2
COC(=O)[C@H]1[C@H](CO)[C@H]2Cn3c(ccc(C4=CCCC4)c3=O)[C@H]2N1CC1CCOCC1	14	14

Arranged by count of non-hydrogen atoms (descending): 11 of the compounds above
SMILES	Vaccinia inh	Vaccinia inh Venus
C[C@H]1CN([C@@H](C)CO)C(=O)Cc2cc(NC(=O)CCCCCC(=O)Nc3ccccc3N)ccc2O[C@@H]1CN(C)C(=O)Nc1ccccc1	3	4
C[C@@H]1CCCCO[C@@H](CN(C)C(=O)c2ccccc2)[C@@H](C)CN([C@H](C)CO)C(=O)c2cc(NC(=O)NC3CCCCC3)ccc2O1	23	14
CC(C)NC(=O)N(C)C[C@H]1Oc2ccc(NC(=O)Nc3ccc4c(c3)OCO4)cc2C(=O)N([C@H](C)CO)C[C@H]1C	5	-1
C[C@H]1CN([C@@H](C)CO)C(=O)c2cc(C3=CCCC3)cnc2O[C@H]1CN(C)C(=O)c1ccc2c(c1)OCO2	18	6
CCCC(=O)Nc1ccc2c(c1)C(=O)N(C)[C@H]1CC[C@H](CC(=O)NCCc3ccccc3)O[C@H]1CO2	17	3
O=C(Nc1ccccc1F)N1CCCCN2[C@H](CO)[C@H](c3ccc(C4=CCCC4)cc3)[C@H]2C1	?	.
O=C(CCN1CCCCC1)N[C@H]1CC[C@@H](CCNS(=O)(=O)c2ccc(F)cc2)O[C@H]1CO	-2	-2
COC(=O)[C@H]1[C@H](CO)[C@H]2Cn3c(ccc(C4=CCCC4)c3=O)[C@H]2N1CC1CCOCC1	14	14
C[C@H]1CN([C@@H](C)CO)S(=O)(=O)c2ccc(Br)cc2O[C@@H]1CN(C)Cc1ccncc1	?	.
CCC(=O)N1CC(=O)N2[C@H](C1)[C@@H](c1ccc(C#Cc3cccnc3)cc1)[C@@H]2CO	0	7
C/C=C/c1ccc([C@H]2[C@H](CO)N(C(C)=O)C23CN(S(C)(=O)=O)C3)cc1	4	-1

The list continues:
SMILES	Vaccinia inh	Vaccinia inh Venus
C[C@@H]1CN([C@@H](C)CO)C(=O)c2cc(NS(=O)(=O)c3ccccc3)ccc2O[C@@H](C)CCCCO[C@@H]1CN(C)Cc1ccncc1	3	-5
COc1cccc(-c2ccc3c(c2)O[C@H](CN(C)C(=O)c2ccccc2F)[C@@H](C)CN([C@@H](C)CO)S3(=O)=O)c1	?	.
Cc1noc(C)c1S(=O)(=O)N(C)C[C@@H]1OCCCC[C@@H](C)Oc2ccc(NS(=O)(=O)c3ccc(Cl)cc3)cc2C(=O)N([C@H](C)CO)C[C@H]1C	?	.
O=C(O)C1=C[C@@H](C2CCCC2)C[C@@H](OCCCCO)O1	20	12
COC(=O)C[C@@H]1C[C@@H]2c3cc(NS(=O)(=O)c4ccc(F)cc4)ccc3O[C@@H]2[C@H](CO)O1	-4	6
CCC(=O)Nc1ccc2c(c1)OC[C@@H](C)N(Cc1ccccc1F)C[C@H](C)[C@@H](OC)CN(C)C2=O	-17	-7
O=C(CC1CC1)N1CC[C@@H]2[C@H]1c1cc(-c3cccc(F)c3)ccc1N[C@@H]2CO	7	5
CCS(=O)(=O)Nc1ccc2c(c1)C(=O)N(C)C[C@H](OC)[C@@H](C)CN(C(=O)CN(C)C)[C@@H](C)CO2	-5	-1
C[C@@H]1CCCCO[C@@H](CN(C)S(=O)(=O)c2ccc(Cl)cc2)[C@H](C)CN([C@H](C)CO)C(=O)c2cc(NS(=O)(=O)c3ccccc3)ccc2O1	?	.
CCNC(=O)C[C@H]1C=C[C@@H](NC(=O)C2CCOCC2)[C@H](CO)O1	10	1
C[C@@H]1CCCCO[C@@H](CN(C)C(=O)C2CCCCC2)[C@@H](C)CN([C@H](C)CO)C(=O)c2cc(NC(=O)Nc3ccc(C(F)(F)F)cc3)ccc2O1	-17	-11
C[C@H](CO)N1C[C@H](C)[C@H](CN(C)S(=O)(=O)c2ccc(F)cc2)Oc2ncc(C#CC3(O)CCCC3)cc2C1=O	5	-2

An excerpt taken from the entries so far, for reference:
SMILES	Vaccinia inh	Vaccinia inh Venus
COc1cccc(CN(C)C[C@H]2OCc3cn(nn3)CCCC(=O)N([C@H](C)CO)C[C@@H]2C)c1	15	14
O=C(C[C@@H]1C=C[C@@H](NS(=O)(=O)c2cccc(F)c2)[C@@H](CO)O1)N1CCCCC1	-1	-7

The list continues:
SMILES	Vaccinia inh	Vaccinia inh Venus
C[C@@H]1CCCCO[C@H](CN(C)S(C)(=O)=O)[C@@H](C)CN([C@@H](C)CO)C(=O)c2cc(NS(C)(=O)=O)ccc2O1	5	1
C[C@@H]1CN([C@H](C)CO)C(=O)c2cc(C3=CCCC3)cnc2O[C@@H]1CN(C)Cc1ccc(F)cc1	-21	-14
O=C(C[C@@H]1C=C[C@H](NC(=O)Nc2cc(F)ccc2F)[C@@H](CO)O1)NCc1ccncn1	2	2
O=C(C1CCC1)N1C[C@@H]2N[C@H](C1)C2c1ccc(-c2cccc(F)c2)cc1 (stereo partly drawn)	?	7
O=C(C[C@@H]1CC[C@H](NC(=O)c2ccncc2)[C@H](CO)O1)NCC1CC1	5	12
CNC[C@H]1Oc2ccc(NS(=O)(=O)c3ccc(Cl)cc3)cc2C(=O)N([C@@H](C)CO)C[C@@H]1C	3	0
COc1ccccc1-c1ccc2c(c1)O[C@@H](CN(C)S(=O)(=O)c1ccc(F)cc1)[C@@H](C)CN([C@H](C)CO)S2(=O)=O	-18	-15
O=C(CC1CC1)N1CC(=O)N2[C@H](C1)[C@@H](c1ccc(C#Cc3ccccc3)cc1)[C@@H]2CO	-17	-24
O=C(C[C@H]1CC[C@@H](NC(=O)c2ccncc2)[C@H](CO)O1)NCCc1ccncc1	4	-2
COc1ccc(S(=O)(=O)Nc2ccc3c(c2)C(=O)N([C@@H](C)CO)C[C@@H](C)[C@@H](CN(C)Cc2ccc4c(c2)OCO4)O3)cc1	-15	-14
COc1ccc(S(=O)(=O)Nc2ccc3c(c2)C(=O)N([C@H](C)CO)C[C@@H](C)[C@H](CN(C)C(=O)Nc2c(C)noc2C)OCCCC[C@@H](C)O3)cc1	15	7
CC(C)NC(=O)N(C)C[C@@H]1Oc2ncc(C#Cc3cccc(F)c3)cc2C(=O)N([C@H](C)CO)C[C@@H]1C	4	3
COc1ccc(NC(=O)Nc2ccc3c(c2)[C@@H]2C[C@@H](CC(=O)NCc4ccccn4)O[C@@H](CO)[C@@H]2O3)cc1	33	21
CC(C)NC(=O)Nc1ccc2c(c1)C(=O)N([C@H](C)CO)C[C@H](C)[C@@H](CN(C)C(=O)Nc1ccc(F)cc1)OCCCC[C@H](C)O2	3	5
O=C(C[C@H]1CC[C@H]2[C@@H](COC[C@@H](O)CN2Cc2cc(F)ccc2F)O1)N[C@H]1CCN(Cc2ccccc2)C1	?	.
COc1ccc(NC(=O)N[C@H]2C=C[C@H](CC(=O)NC3CCCCC3)O[C@H]2CO)cc1	7	15
